Compound activity deposited in PubChem by several laboratories.
T cruzi inh: inhibitors of intracellular T. cruzi growth, primary screen, luminescence, NIH3T3 host cells. T. cruzi beta-gal in NIH3T3, 90 h. inhibition, % (no concentration beside the values). hit rate 1.4% among 300,000. AID 1885, 2009;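 active means mean inhibition across valid replicates above about 55%, limit read from the data; inconclusive means mean below that limit but half or more replicates reach it; inactive means mean below it, under half of replicates reach it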;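 further: signal also drops with host cell toxicity which is not excluded here; 0% = plate median of DMSO wells and 100% = zero luminescence signal; higher percent means less beta-gal luminescence so fewer parasites; stock transfer was 50 nL into about 50 µL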
Calb FLC: C. albicans growth inhibition with fluconazole, primary screen, CaCi-2 strain, Alamar Blue fluorescence; AID 1979, 2009; growth inhibition, % (test concentration not listed); hit rate 0.57% among 300,000; C. albicans CaCi-2 (fluconazole-resistant clinical isolate) + fluconazole, 48 h;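 active means most replicates above 75%; inconclusive means exactly half above 75%; inactive means most below 75%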;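 further: all wells also contain fluconazole at 8 µg/ml as a sub-toxic cotreatment; 0% = median of DMSO wells and 100% = median of geldanamycin control wells; wells of about 8 µL received 7.5 nL stock; the first replicate is given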
AF4-AF9 inh: inhibitors of AF4 peptide binding to AF9, primary screen, biochemical, AlphaScreen, biotin-AF4 peptide, FLAG-AF9, single point | Protein AF-9 (Homo sapiens), P42568 | inhibition, % at 10 µM | hit rate 0.47% among 350,000 | AID 651704, 2012;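 active means every replicate reaching a set inhibition limit, whatever the replicate mean, cut at about 25% in these data; inconclusive means mean inhibition reaches that limit but some replicates miss it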;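 further: 0% = plate neutral control median and 100% = total signal loss; the record names both 10 and 1 µM as test concentration; the first replicate is given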
Target sequence (P42568 whole entry, looked up): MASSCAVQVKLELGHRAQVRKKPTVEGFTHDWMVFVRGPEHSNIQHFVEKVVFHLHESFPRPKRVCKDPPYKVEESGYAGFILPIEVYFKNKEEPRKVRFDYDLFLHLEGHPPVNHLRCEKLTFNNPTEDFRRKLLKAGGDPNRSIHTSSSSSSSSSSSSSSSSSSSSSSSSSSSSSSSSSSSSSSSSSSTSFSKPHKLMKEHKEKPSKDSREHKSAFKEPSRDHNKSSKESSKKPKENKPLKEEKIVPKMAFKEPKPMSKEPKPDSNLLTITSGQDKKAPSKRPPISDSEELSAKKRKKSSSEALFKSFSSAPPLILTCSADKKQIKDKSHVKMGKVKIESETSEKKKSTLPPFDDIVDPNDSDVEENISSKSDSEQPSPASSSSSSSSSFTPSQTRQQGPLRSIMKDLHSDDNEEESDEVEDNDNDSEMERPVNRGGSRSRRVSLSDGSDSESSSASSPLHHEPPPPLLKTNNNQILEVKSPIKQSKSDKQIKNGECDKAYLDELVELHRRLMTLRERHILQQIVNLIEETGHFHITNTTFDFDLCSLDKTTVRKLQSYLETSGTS
Vif TR-FRET: inhibitors of Vif binding to APOBEC3G peptide, primary screen, biochemical, TR-FRET, GST-Vif 1-94, biotin-A3G peptide, dose response retest (AID 1117319); Virion infectivity factor (Human immunodeficiency virus type 1 group M subtype B (isolate …; TR-FRET GST-Vif / biotin-A3G peptide binding; higher % means a stronger effect; test concentration not given here; strong numbers were not always called active; inhibition, %; hits with a dose series show IC50 in µM; hit rate 0.57% among 260,000;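 active means above the screen mean plus three standard deviations and confirmed in dose response; inconclusive means results disagree or hit not tested in dose response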;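 further: Vif residues 1-94 fused to GST binding biotinylated APOBEC3G peptide 110-148; 0% = full assay without inhibitor and 100% = GST in place of GST-Vif; retest series ran down from 100 µM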
Bfl-1 A1 inh: caspase 3/7 activation in MEF A1-2A-BIM cells, primary screen, A1 inhibitor project, cell-based, luminescence, HTS; hit rate 0.066% among 330,000; caspase activation, % (concentration not given with the values); Caspase-Glo 3/7 luminescence, 3 h; percent of clofoctol response, vehicle zero;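 active means over half of replicate activation scores above 10%, or exactly half above 10 with the replicate mean above 10; inconclusive means replicate mean below 10 yet half the replicates above 10; inactive means over half of replicates below 10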;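 further: wells of about 30 µL received 50 nL stock; many hits fall short of the cut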
Beta cell apopt: inhibitors of cytokine-induced beta cell apoptosis, primary screen, luminescence. INS-1E cytokine-induced death, ATP luminescence, 48 h; percent of positive-control rescue, neutral wells zero. protection from apoptosis, % (no concentration beside the values). hit rate 0.8% among 300,000. AID 435005, 2010;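 active means all replicates at 75% or more, or half of them and the mean; inconclusive means half reach 75% but not the mean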;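 further: 0% = cytokine-treated negative control wells and 100% = positive control rescue; higher means more ATP so stronger rescue from cytokine killing; wells of about 40 µL received 100 nL stock; the first replicate is given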
rRNA inh HTS: reduced GFP signal of wild-type E. coli, primary screen, bacterial rRNA inhibitor project, GFP/RFP fluorescence, OD600, single point | E. coli WT GFP vs humanized-ribosome RFP mutants, 24 h; active compounds read low; DMSO median 0, no signal -100 | GFP signal change (wild-type ribosome), % (no concentration beside the values) | hit rate 1.6% among 350,000 | AID 720706, 2013;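 active means significant combined selectivity score with lowered wild-type GFP, culture density cut under 30%, mutant RFP and density less affected; inactive means any of these conditions unmet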; further: one replicate is shown; some compounds called inactive have numbers as strong as hits
RanGTP-Imp inh: inhibitors of RanGTP-importin-beta interaction, primary screen, biochemical, FRET, CFP-Ran, YFP-importin-beta, homogeneous; inhibition, % (concentration not given with the values); hit rate 1.1% among 300,000; cell-free CFP-Ran/YFP-importin-beta FRET ratio; Ran GTPase (GTP-bound) - importin-beta complex;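 active means most replicates above 15%; inconclusive means exactly half above 15%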;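 further: 0% = DMSO wells and 100% = Ran loaded with GDP instead of GTP; wells of about 40 µL received 100 nL stock; the first replicate is given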
rRNA inh HTS OD600: further read-out of rRNA inh HTS, marked with its call; OD600 change, %; measured here: OD600 growth;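 optical density of the mix in the first replicate; 0 = DMSO median and -100 = no signal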
rRNA inh HTS RFP: also measured in rRNA inh HTS; calls as there; RFP signal change, %; measured here: RFP humanized mutant strains;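 first replicate; 0 = DMSO median and -100 = no signal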
* hit, by the source's call; ? = inconclusive; . = no result given; & = joins results of further samples.

Start of the listing, in advance (eight entries):
SMILES	T cruzi inh	Calb FLC	AF4-AF9 inh	Vif TR-FRET	Bfl-1 A1 inh	Beta cell apopt	rRNA inh HTS	rRNA inh HTS OD600	rRNA inh HTS RFP	RanGTP-Imp inh
Cc1ccc(-n2c(Cc3cccn3C)nnc2SCC(=O)N2CCc3ccccc32)cc1	14	-5	.	6%&3%	0.2	.	.	.	.	0.7
Cc1nc(CN(C)C(=O)c2cc(COc3c(F)cccc3F)on2)cs1	-5	1	-2.8	.	-0.7	.	-6	-5	-2.0	-1.9
CC(C)(C)OC(=O)C[C@H]1C/C=C\C[C@H](CC(=O)N(CCO)Cc2ccccc2)C(=O)N2CCC[C@H]2COC1=O	.	.	-1.2	.	2.1	-4	-2	6	20	.
Cc1cccc(NC(=O)CCc2nc3sc4c(c3c(=O)[nH]2)CCCC4)c1	-4	1	-9.9	-16%	-0.1	.	8	17	-1.9	4.3
O=C(NC(=S)Nc1cccc2cccnc12)c1cccs1	-15	-10	0.7	.	0.2	3	-33	-43	-4.1	3.0
O=C(N=Nc1c(O)[nH]c2ccccc12)c1ccc(CN2CCOCC2)cc1	-4	-8	-0.1	5%	-0.2	5	2	-2	-4.7	-2.6
Brc1ccc2nc(-c3cccs3)c(NCC3CCCO3)n2c1 (stereo unspecified)	5	23	11	.	-1.1	0	-8	-2	-0.1	2.7
C=CCn1cc(C(=O)N2CCN(C)CC2)c(=O)c2cc(S(=O)(=O)N(CC)CC)ccc21	-1	1	-0.9	-4%	0.9	.	10	9	-8.3	-1.5

The list itself, repeating the preview:
SMILES	T cruzi inh	Calb FLC	AF4-AF9 inh	Vif TR-FRET	Bfl-1 A1 inh	Beta cell apopt	rRNA inh HTS	rRNA inh HTS OD600	rRNA inh HTS RFP	RanGTP-Imp inh
Cc1ccc(-n2c(Cc3cccn3C)nnc2SCC(=O)N2CCc3ccccc32)cc1	14	-5	.	6%&3%	0.2	.	.	.	.	0.7
Cc1nc(CN(C)C(=O)c2cc(COc3c(F)cccc3F)on2)cs1	-5	1	-2.8	.	-0.7	.	-6	-5	-2.0	-1.9
CC(C)(C)OC(=O)C[C@H]1C/C=C\C[C@H](CC(=O)N(CCO)Cc2ccccc2)C(=O)N2CCC[C@H]2COC1=O	.	.	-1.2	.	2.1	-4	-2	6	20	.
Cc1cccc(NC(=O)CCc2nc3sc4c(c3c(=O)[nH]2)CCCC4)c1	-4	1	-9.9	-16%	-0.1	.	8	17	-1.9	4.3
O=C(NC(=S)Nc1cccc2cccnc12)c1cccs1	-15	-10	0.7	.	0.2	3	-33	-43	-4.1	3.0
O=C(N=Nc1c(O)[nH]c2ccccc12)c1ccc(CN2CCOCC2)cc1	-4	-8	-0.1	5%	-0.2	5	2	-2	-4.7	-2.6
Brc1ccc2nc(-c3cccs3)c(NCC3CCCO3)n2c1 (stereo unspecified)	5	23	11	.	-1.1	0	-8	-2	-0.1	2.7
C=CCn1cc(C(=O)N2CCN(C)CC2)c(=O)c2cc(S(=O)(=O)N(CC)CC)ccc21	-1	1	-0.9	-4%	0.9	.	10	9	-8.3	-1.5
COc1ccc(CNC(=O)c2cc3c(=O)[nH]c4ccccc4c3n2C)cc1	-3	9	-1.1	0%	0.2	-7	4	5	2.0	-1.8
CC(=O)N1CCCc2cc(S(=O)(=O)N3CCCC3)ccc21	7	7	1.1	.	-0.7	-3	2	0	-1.0	-2.6
CSCC[C@H](NC(=O)COc1ccc(Cl)cc1)c1nc2ccccc2[nH]1	2	22	.	.	0.6	-2	.	.	.	-2.9
Nc1c(C(=O)Nc2ccc(S(=O)(=O)N3CCCC3)cc2)sc2nc3ccc(OC(F)(F)F)cc3cc12	39	20	.	-2%	15*	98*	.	.	.	-3.6
O=C(O)C1CCCCC1C(=O)NCc1cn2ccccc2n1 (stereo unspecified)	-1	-1	-14	0%	0.1	5	8	4	-1.3	0.9
CON(C)c1nc(OCCNC(=O)OCc2ccc(Cl)cc2Cl)nc(N(C)C)n1	-3	41	.	-3%&5%	0.1	0	.	.	.	1.6
COc1cccc(CN(C(=O)c2ccco2)C2CCS(=O)(=O)C2)c1 (stereo unspecified)	-2	15	-0.8	-1%	-0.2	2	4	9	-1.7	3.1
CC(C)C(NC(=O)COc1ccc2ccccc2c1)C(=O)N/N=C/C=C/c1ccccc1 (stereo unspecified)	-18	-3	.	0%	0.5	-9	.	.	.	-1.3
OC(Cn1ccnc1)c1ccc(Cl)cc1Cl (stereo unspecified)	34	7	.	-3%	1.2	0	.	.	.	1.7
CC1CCCN(C(=O)c2ccc(S(=O)(=O)Nc3ccccc3Cl)cc2)C1 (stereo unspecified)	3	26	0.7	.	0.4	3	-4	-12	-2.5	5.7
C=CCSC1=N/C(=C\c2sccc2C)C(=O)S1	-5	2	.	7%	-0.6	-4	.	.	.	-0.4
CN(C)/C=N/C(=S)Nc1ccccc1	-9	-4	-0.1	5%	-0.1	-9	18	5	3.9	-3.0
Cc1cc2nc(C)n3c4ccccc4nc3n2n1	-7	-8	.	-13%	0.1	-5	.	.	.	2.8
COc1ccccc1NS(=O)(=O)c1cccc(C(=O)NNC(=O)c2ccc(O)c(Cl)c2)c1	-8	5	0.5	-2%	-0.2	-8	-13	-8	-7.4	5.5
Cc1ccc(NC(=O)CCNC(=O)Nc2ccccc2)cc1S(=O)(=O)N(C)C	.	.	0.4	.	-0.5	-2	1	4	0.7	.
COC(=O)c1cc(NC(=O)c2c(F)c(F)c(F)c(F)c2F)cc(C(=O)OC)c1	1	-6	-2.2	24%	0.4	5	-29	-28	-9.3	7.3
Cc1cc(Nc2ccc(N3CCC(C)CC3)cc2)n2ncnc2n1	-16	-19	-26	4%	-0.9	.	-9	-10	-5.1	4.3
Cc1cc(N2CCOCC2)nc(C(C)C)n1	-12	8	-1.0	.	0.7	-6	13	6	0.9	2.8
COC(=O)c1ccc(NC(=S)N(Cc2cccnc2)Cc2ccco2)cc1	73*	-5	1.5	0%	0.6	-2	-14	-16	-3.4	-0.5
CCOc1ccc(Cc2c(Cl)nc(N)nc2Cl)cc1	5	0	.	-10%	0.0	-6	.	.	.	0.5
C(=N\Nc1ccccc1)/c1ccc(N2CCOCC2)cc1	18	?	.	?	-0.4	-11	.	.	.	-1.8
Cc1ccc(-c2nnn(CC(=O)N(Cc3cccs3)C(C(=O)NC(C)(C)C)c3ccc(C)o3)n2)o1 (stereo unspecified)	8	?	.	0%	0.1	-19	.	.	.	3.0
Cc1ccccc1-c1nnn(C/C(N)=N/O)n1	-4	-24	-3.4	.	0.0	-5	1	4	-0.4	0.8
CN(CCN1CCOCC1)C(=O)CC1C(=O)NCCN1Cc1ccccc1C(F)(F)F (stereo unspecified)	6	0	-1.9	.	0.4	-5	15	10	-1.1	1.5
CN1CCN(CCCNC(=O)CCc2nnc3n(Cc4ccccc4Cl)c(=O)c4ccccc4n23)CC1	-15	-6	2.0	.	1.2	-1	13	11	0.0	?
CCOc1cnn(-c2ccccc2)c(=O)c1Cl	-55	-2	-6.3	-14%	1.4	-6	8	8	-1.4	1.2
CC(=O)NC1C(=O)N(CCN2CCOCC2)c2ccc(C)cc21 (stereo unspecified)	-3	-21	.	7%	0.6	-6	.	.	.	-2.3
O=C1CCC(C(=O)N2CCN(c3ccc(F)cc3)CC2)CN1CC1CCCCC1 (stereo unspecified)	-11	-5	-2.2	.	-0.2	-4	-2	-5	0.4	3.6
NC(N)=NCCCc1cn(CC(=O)N2CCNCC2)nn1	6	2	-0.8	.	-0.9	1	2	1	6.7	?
CC(C)(C)NC(=O)C12CC3CC(CC(Cl)(C3)C1)C2	-5	-3	-3.4	7%	0.1	-14	.	.	.	1.5
NNC(=O)/C(=C\c1ccco1)NC(=O)c1ccco1	-3	6	-2.8	.	0.9	-9	17	7	-2.7	-3.3
Cc1ccc(S(=O)(=O)N(C)C)cc1NC(=O)COC(=O)C1=COCCO1	.	.	-3.4	-10%	0.3	0	8	15	3.1	.
CC(=O)Nc1ccc(S(=O)(=O)NCC(=O)OCC(=O)NCc2ccco2)cc1	-2	0	-13	7%	0.1	-9	8	7	-1.3	3.5
CCC(=O)N/N=C(\C)CC(=O)Nc1ccc2c(c1)OCCO2	-7	-3	-2.4	4%	-0.1	2	8	3	0.7	-2.0
COc1cc(NC(=O)C2COc3ccccc3O2)c(OC)cc1Cl (stereo unspecified)	19	-13	.	-4%	-0.1	3	.	.	.	1.3
Cc1ccc(C(=O)COc2nc(C)nc3ccccc23)cc1	-9	15	-0.3	?	1.1	0	7	7	0.2	-3.5
Cc1ccc(C(=O)N(CCc2ccccc2)Cc2ccccc2)cc1S(=O)(=O)N1CCCCC1	40	0	-33	-10%	-0.7	7	2	6	3.2	-0.8
COc1ccc(N(Cc2ccccc2)S(=O)(=O)c2cc(C(=O)O)ccc2Cl)cc1	-1	-1	-4.1	.	1.3	-5	-25	-46	-1.7	-1.3
Cc1ccc2cc(C3CC(c4ccco4)=NN3S(C)(=O)=O)c(Cl)nc2c1 (stereo unspecified)	-5	11	2.0	.	-0.3	-1	7	-6	-0.8	-1.7
O=C(c1cc2ccccc2oc1=O)N(Cc1ccccc1F)C1CCS(=O)(=O)C1 (stereo unspecified)	-13	10	-1.5	1%	.	.	3	10	0.3	0.4
Cc1csc(NC(=O)CCS(=O)(=O)c2ccc(Br)cc2)n1	9	15	.	5%	1.1	-13	.	.	.	-2.7
NC(=O)c1ccc(OCC(=O)N2CCNC2=O)cc1	.	.	3.5	0%	0.2	0	5	8	-4.1	.
COC(=O)C1=C(C)N(CCc2ccc(OC)c(OC)c2)C(=O)/C1=C\c1ccc(O)cc1	1	?	10	3%	-0.3	-6	4	0	-0.9	2.9
O=S(=O)(Nc1nc2c(s1)CCCC2)c1ccc(Br)cc1	18	17	.	?	-0.4	-1	.	.	.	?
CC1(CCBr)C(=O)N(c2ccccc2)c2ccccc21 (stereo unspecified)	2	13	-5.1	.	1.1	-5	3	2	0.0	3.0
O=C1CCc2cc(S(=O)(=O)NCc3ccccc3)cc3c2N1CC3	-22	-5	0.4	-1%	0.8	0	2	0	-2.9	-0.3

The list is partial, so the mix of outcomes need not match the whole.
